VDR inhibitor: blocks the human vitamin D receptor; VDR-SRC2-3 peptide fluorescence polarization, 2 h; P11473; actives 0.93% (n = 400,000); AID 504847; Potency, µM, for the others: max response, negative = inhibition, most hits filed as inhibitors; active = well fitted inhibition curve with a large enough effect; inconclusive = small, poorly fitted or top-dose-only effect, or another doubt; inactive = no such curve, though single readings can be large or run the other way; also: series mostly up to about 120 µM
Target sequence (P11473 whole entry, looked up): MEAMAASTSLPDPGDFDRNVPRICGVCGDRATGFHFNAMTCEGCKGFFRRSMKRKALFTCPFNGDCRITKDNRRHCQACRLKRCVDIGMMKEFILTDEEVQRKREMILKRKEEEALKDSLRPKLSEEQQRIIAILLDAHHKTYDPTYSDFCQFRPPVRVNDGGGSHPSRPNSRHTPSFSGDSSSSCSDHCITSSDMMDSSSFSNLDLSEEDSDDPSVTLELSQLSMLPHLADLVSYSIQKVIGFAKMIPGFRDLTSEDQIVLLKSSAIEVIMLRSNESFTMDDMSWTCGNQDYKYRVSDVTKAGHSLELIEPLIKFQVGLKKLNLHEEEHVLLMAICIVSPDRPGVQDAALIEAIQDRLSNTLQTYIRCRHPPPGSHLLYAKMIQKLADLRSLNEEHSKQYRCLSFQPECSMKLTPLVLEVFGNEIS
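Fluorescence polarization assay measuring small-molecule disruption of VDR binding to the coregulator peptide SRC2-3. Compounds were pin-transferred (23 nl) into the reagent mix and incubated 2 h at room temperature before reading.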
An asterisk follows results filed as active; ? = inconclusive. % is scaled to controls: 0 for no effect and ±100 for the full control effect; potency is read from the fitted curve at half-maximal effect. Not all compounds are listed (hit frequency here may not be typical).

SMILES	VDR inhibitor
CCOC(=O)c1cc(C(=O)Nc2sc3c(c2C#N)CCCC3)nn1C	?
CN(CC(=O)Nc1ccc(F)c(F)c1F)C(=O)CCCc1nc2ccccc2c(=O)[nH]1	-1%
Cc1nc(CC(=O)N/N=C/c2ccc(OCC(=O)O)cc2)cs1	6%
CCN(CC)C(=O)C(Sc1ccccc1)c1ccccc1 (centres undefined)	-3%
Cc1ccccc1CN1CCN(C(C)C(=O)NCc2ccccc2)CC1 (centres undefined)	7%
CCOC(=O)CC(NC(C)=O)c1ccc([N+](=O)[O-])cc1 (centres undefined)	13%
CC1C(=O)Nc2ccc(S(=O)(=O)NCc3ccc(Cl)cc3)cc2NC1=O (centres undefined)	2%
CC1(C)ON(C2CCCCC2)[C@H]2c3nc4ccccc4n3C[C@H]21	-13%
COc1ccccc1N1CCN(c2cc(C)nc3nncn23)CC1	10%
CCC(C)[C@H]1CNCCN1CCCc1cc(OC)c(OC)c(OC)c1 (some centres undefined)	-13%
O=C(Nc1ccc(F)cc1F)N1CCN(c2ccc(Cl)c(Cl)c2)CC1	12%
Cc1ccc(C(=O)Nc2ccc3oc(-c4ccc(C(C)(C)C)cc4)nc3c2)cc1	-2%
CCn1c(SC(=O)NC2CCCCC2)nnc1-c1cccs1	9%
CC(=O)CCc1c(C)c2cc(C)ccc2[nH]c1=O	-8%
Cc1noc(C)c1NC(=O)Nc1cccc2c1O[C@H](CN(C)S(=O)(=O)c1ccccc1)[C@@H](C)CN([C@H](C)CO)C2=O	-2%
CSCC(=O)N1CCC(n2nccc2NC(=O)c2ccc3c(c2)OCO3)CC1	-3%
C=CCSc1nnc2c(n1)-c1cccc3cccc-2c13	-7%
COc1ccc(NC(=O)c2cc3c(-c4ccc(OC)c(OC)c4)nn(C)c3s2)cc1OC	21%
CCOC(=O)CSc1nc(-c2ccccc2)nc2ccc(F)cc12	-8%
COc1ccc(NC(=O)c2sc3nc4c(cc3c2N)CCCCCC4)cc1OC	0%
CCOC(=O)c1nnn(CC(=O)NC(=O)Nc2ccccc2)c1C(=O)OCC	-1%
CCn1c(=O)c([N+](=O)[O-])c(NCCc2ccccc2)c2ccccc21	-11%
O=c1c2oc3ccccc3c2n(Cc2cccc(F)c2)c(=O)n1Cc1ccco1	4%
O=C(O)CCc1ccc(-c2ccc(Br)cc2)n1NC(=O)c1ccc([N+](=O)[O-])cc1	-1%
CN(C)C(=O)c1ccc(NC(=O)c2sccc2-c2ccccc2)cc1	3%
Cc1nnc(SCC(=O)NC(C)(C)C)n1NCc1cccc(Br)c1	-17%
COc1ccc(C(=O)COC(=O)COc2ccc(C)c(C)c2)cc1	-5%
CCS(=O)(=O)N1CCN(Cc2ccccc2OC)CC1	3%
CC1=NN(C(N)=S)C(=O)C1N=Nc1ccccc1O (centres undefined)	1%
Cc1nc(-c2ccc(Cl)cc2)sc1C1(C)CC(c2ccc(C#N)cc2)=NO1 (centres undefined)	3%
Cc1onc(-c2ccccc2)c1C(=O)N=C(N)c1ccc(C(F)(F)F)cc1	-15%
Cc1cc2cc(C)c(NCCNC(=O)c3ccccc3Cl)nc2cc1C	?
CCOc1ccccc1CNC(=O)c1cnc2c(-c3ccc(OCC)c(OCC)c3)c(C)nn2c1C	13%
N#Cc1ccc(OCC(O)CS(=O)(=O)c2ccccc2)cc1 (centres undefined)	-2%
C=CCn1c(C)csc1=Nc1ccccc1C	-6%
Cc1cccc(N2CCN(C(=O)C3CCN(S(=O)(=O)c4cnc[nH]4)CC3)CC2)c1C	7%
CC1CN(Cc2ccc(C#N)cc2Cl)CC(C)O1 (centres undefined)	4%
Cc1ccc(/C=N/NC(=O)Cc2c[nH]c3ccccc23)c(C)c1	7%
Nn1c(COc2ccccc2F)nnc1SCC(=O)NC1CC1	-2%
C=C(C)CC(C)(C)C	-6%
CC(=O)Nc1ncc(Cc2ccc(Cl)cc2Cl)s1	15%
COc1ccc([C@H]2CC(=O)C=C(c3ccc(-c4ccccc4)c(F)c3)C2)cc1	-5%
Cc1cc(C(=O)O)cc(S(=O)(=O)Nc2c(C)nn(C)c2C)c1C	-12%
CCc1nn2c(=O)cc(COC(=O)C3CCCCC3)nc2s1	1%
COc1cccc(C=NN2CCCCCC2)c1OC	2%
CCC(=O)Nc1ccc(SC#N)cc1C	-35%
COc1ccc(CNC(=O)COc2ccc([N+](=O)[O-])cc2)cc1	-5%
COC(=O)COc1ccc2oc(=O)cc(-c3cc4ccccc4o3)c2c1	0%
COc1ccc(Cc2nnc(SCC(=O)c3ccc(OC)cc3)o2)cc1	15%
C/C(Cn1cnc([N+](=O)[O-])n1)=N\NC(=O)c1ccc(O)cc1O	6%
(more compounds)
SMILES	VDR inhibitor
Cc1nnc(SC(C)C(=O)Nc2ccc(S(=O)(=O)N3CCCCCC3)cc2)s1 (centres undefined)	12%
Cc1cccc(NC(=O)C(=O)NCCc2c[nH]c3ccccc23)c1C	7%
CC(C)CCCC(C)CCOC(=O)CN1CCCC1 (centres undefined)	4%
CS(=O)(=O)c1ccc(NC(=O)C2CC(=O)N(c3ccc4c(c3)OCCO4)C2)cc1 (centres undefined)	-12%
Cc1cc(=O)[nH]c(SCC(=O)N2CCC(Cc3ccccc3)CC2)n1	17%
COc1cccc(N(C(=O)Cc2cccs2)C(C(=O)NC2CCCC2)c2ccncc2)c1 (centres undefined)	15%
O=C(NCC(c1cccnc1)N1CCc2ccccc21)c1cccc(F)c1 (centres undefined)	7%
COCCN1C(=O)N[C@@H](c2cccc(F)c2)C(C(=O)OC)=C1C	-10%
O=C(CSCc1ccc([N+](=O)[O-])cc1)Nc1ccc(S(=O)(=O)N2CCCCCC2)cc1	7%
CCOC(=O)c1cccc(NC(=O)CSc2ncc3c(n2)-c2ccc(Cl)cc2N(Cc2ccccc2)S3(=O)=O)c1	-2%
C=CCN(C(=O)CCC(=O)O)C1CC(=O)N(c2ccc(OC)cc2)C1=O (centres undefined)	-6%
Cc1ccc(OCCCC(=O)N2CCOCC2)cc1	-3%
CCOC(=O)N1CCN(Cc2nc(-c3cccc(Cl)c3)no2)CC1	2%
COc1ccccc1-c1cc(C(=O)N2CCN(S(=O)(=O)c3ccc(C)cc3)CC2)[nH]n1	-1%
CC1=C2C(CCS2(=O)=O)CC2(C1)C(=O)OC(C)(C)OC2=O (centres undefined)	-5%
CCC(C(=O)Nc1cccc(Cl)c1C)n1nc(C)c2sc3ccccc3c2c1=O (centres undefined)	4%
O=C(Nc1nc(-c2cccnc2)cs1)c1ccccc1[N+](=O)[O-]	-15%
O=C(COC(=O)c1ccncc1)c1ccc(Cl)c(Cl)c1	13%
Cc1ccc(C(=O)Nc2sc3c(c2C(=O)NCc2ccco2)CCC(C(C)(C)C)C3)cc1 (centres undefined)	-20%
COc1ccc(NC2c3ccccc3C(=O)N2c2cccnc2)cc1 (centres undefined)	5%
COc1ccc(N2CCC(CNS(=O)(=O)c3cccc(C(F)(F)F)c3)C2)cc1 (centres undefined)	2%
COc1nc(Nc2ccc(OC)c(Cl)c2)nc(OC)n1	-10%
O=C1CCCN1C(=O)CSc1nnnn1-c1cccc(F)c1	-16%
Cc1cc(Nc2ccc(Cl)cc2)n2nnnc2n1	-12%
CCCCCOc1ccc(NC(=O)Cn2c(-c3cncs3)nc3ccccc32)cc1	-2%
CCCCCCn1c(=O)c(-c2ccccc2)c(O)c2ccccc21	4%
C#CCN1C=C(C(=O)OCC)C(C)N(Cc2ccccc2I)S1(=O)=O (centres undefined)	-4%
CC(=O)O[C@](C)(CCC=C(C)C)C1CC=C(C)CC1 (some centres undefined)	1%
COc1cc(C(=O)N/N=C/c2ccc(OC(=O)c3cccc(C)c3)cc2)ccc1O	10%
Cc1ccccc1NC(=O)Cc1nc(COC(=O)Cc2c(F)cccc2Cl)cs1	-4%
COc1cc(NC(=O)c2ccc(C)cc2C)ccc1NC(=O)c1cccs1	-23%
CC(OC(=O)c1ccc(Cl)c(S(=O)(=O)N2CCc3ccccc32)c1)C(=O)Nc1ncc(Cl)cc1Cl (centres undefined)	7%
O=C(CSc1nc(-c2ccccc2)cs1)Nc1nccs1	18%
Cc1ccc(C(=O)N/C(=C\c2cn(C)c3ccccc23)C(=O)N2CCOCC2)cc1	9%
CCCCNc1c(-c2ccc(SC(C)CC)cc2)nc2ccccn12 (centres undefined)	-30%
CN(C)c1ccc(/C=N/NC(=O)c2ccc(NC(=O)c3ccccc3)cc2)cc1	-1%
C#Cc1ccc([C@H]2C=C(C(=O)OCC=C)O[C@@H](OCC)[C@@H]2CCCO)cc1	-24%
O=C(OCc1cc(=O)n2nc(-c3cccs3)sc2n1)c1cccc(F)c1	5%
COC(=O)c1cc(S(=O)(=O)N2CCN(c3ccc(OC)cc3)CC2)c[nH]1	7%
CCOC(=O)CSc1ccc(C(=O)Nc2ccc(Cl)cc2)cn1	10%
COc1ccc(-n2nnc3c(SCC(=O)NCC4CCCO4)ncnc32)cc1 (centres undefined)	-18%
Nc1nnc(SCC(=O)NCC(=O)Nc2ccc(F)c(F)c2F)s1	-18%
COc1ccc(C(=O)Nc2ccc(N3CCN(c4ccccc4)CC3)c(C(=O)O)c2)cc1	0%
Cc1ccc(C(=O)Nc2ccc(Oc3cccc(C(F)(F)F)c3)nc2)cc1	-6%
CC(=O)c1cccc(NC(=O)c2c(-c3c(F)cccc3Cl)noc2C)c1	-9%
COc1ccc2sc(-c3ccc(S(C)(=O)=O)cc3)c(-c3ccc(SC)cc3)c2c1	4%
CCc1ccc(NC(=O)COC(=O)CN2C(=O)COc3ccccc32)cc1	15%
CC(C)N(C(=O)[C@H]1C[C@H](CC(=O)NCC23CC4CC(CC(C4)C2)C3)C(=O)N2CCc3c([nH]c4cc(-c5ccco5)ccc34)[C@]12C)C(C)C	4%
O=C(CSc1nnc(CNC(=O)c2ccc(F)cc2)o1)NCc1ccc(F)cc1	8%
COc1ccc(CSc2nc3ccncc3n2CC(=O)Nc2cc(C)cc(C)c2)cc1	5%
Other records
SMILES	VDR inhibitor
C=CS(=O)c1sc(Cl)c(N2CCOCC2)c1[N+](=O)[O-] (centres undefined)	?
Cc1ccc(-n2c(SCC(=O)c3c(N)n(C)c(=O)n(C)c3=O)nc3sc4c(c3c2=O)CCCC4)c(C)c1	-3%
CCOC(=O)c1cc(-c2ccccc2)n(CCC(=O)Nc2cc(OCC)ccc2OCC)c1C	12%
CN(C)c1ccc(C(=O)N(Cc2ccccc2)Cc2ccccc2)cc1	-1%
COC(=O)c1ccc(N2Cc3ccccc3/C2=N\C(=O)Nc2ccccc2)cc1	-16%
CCc1ccc(C(C(=O)NC2CCCC2)N(C(=O)c2csnn2)C2CC2)cc1 (centres undefined)	-14%
C/C(=N\NC(=O)c1c([N+](=O)[O-])c(C)nn1C)c1ccc(NC(=O)c2ccc(C)o2)cc1	2%
O=C(NC1CCCCC1)c1ccccc1-c1ccccc1	-6%
COc1cccc(C(=O)NNC(=O)Cc2ccc([N+](=O)[O-])cc2)c1	-8%
O=C(CCSCc1cccc(F)c1)NCc1ccccc1	16%
Cn1c(SCC(=O)N2c3ccccc3CCc3ccccc32)nnc1-c1ccc(O)cc1	-11%
COc1cc(-c2c(C(C)=O)c(C)nc3c2C(=O)c2ccccc2-3)cc(OC)c1OC	-2%
Cc1ccc(CSc2nc3ccc(NC(=O)C(C)C)cc3s2)cc1	-7%
O=C(CCC(=O)NNC(=O)Cc1ccccc1)NCc1ccccc1	4%
CC1=Nn2c(nnc2-c2ccccc2F)SC1	4%
COc1ccc(N2CC(C(=O)Nc3ccccc3C(=O)NC3CC3)CC2=O)cc1 (centres undefined)	-9%
O=C(Nc1ccc(OC(=O)c2ccccc2)c(-c2nc3ccccc3s2)c1)c1ccccc1	1%
COc1ccccc1NC(=O)C(=O)c1cn(CC(=O)N2CCCC2)c2ccccc12	9%
O=C(OCc1ccc(F)cc1Cl)c1ccccn1	-13%
Cc1cccc(NC(=O)CSc2ccc(-c3ccccn3)nn2)c1C	2%
Fc1cccc(NC(=S)Nc2ccc(Br)cc2)c1	8%
CCn1cc(S(=O)(=O)c2ccccc2)c(=O)c2cc(C)ccc21	-8%
CC(=O)OCC(=O)Nc1ccc(SC(F)F)cc1	-3%
O=C(NC(NC(=O)c1ccccc1)c1cccc([N+](=O)[O-])c1)c1ccccc1	23%
COc1ccccc1C(=O)Nc1cc(-c2cccc(Br)c2)nn1-c1ccccc1	1%
CCCC(=O)Nc1cc(C(=O)O)ccc1S(=O)(=O)c1ccc(Cl)cc1	-13%
Cc1c(Br)c([N+](=O)[O-])nn1C(C)C(=O)Nc1nccs1 (centres undefined)	0%

Compounds above with a thiophene ring, fused or not (13):
SMILES	VDR inhibitor
CCOC(=O)c1cc(C(=O)Nc2sc3c(c2C#N)CCCC3)nn1C	?
CCn1c(SC(=O)NC2CCCCC2)nnc1-c1cccs1	9%
COc1ccc(NC(=O)c2cc3c(-c4ccc(OC)c(OC)c4)nn(C)c3s2)cc1OC	21%
COc1ccc(NC(=O)c2sc3nc4c(cc3c2N)CCCCCC4)cc1OC	0%
CN(C)C(=O)c1ccc(NC(=O)c2sccc2-c2ccccc2)cc1	3%
COc1cccc(N(C(=O)Cc2cccs2)C(C(=O)NC2CCCC2)c2ccncc2)c1 (centres undefined)	15%
CCC(C(=O)Nc1cccc(Cl)c1C)n1nc(C)c2sc3ccccc3c2c1=O (centres undefined)	4%
Cc1ccc(C(=O)Nc2sc3c(c2C(=O)NCc2ccco2)CCC(C(C)(C)C)C3)cc1 (centres undefined)	-20%
COc1cc(NC(=O)c2ccc(C)cc2C)ccc1NC(=O)c1cccs1	-23%
O=C(OCc1cc(=O)n2nc(-c3cccs3)sc2n1)c1cccc(F)c1	5%
COc1ccc2sc(-c3ccc(S(C)(=O)=O)cc3)c(-c3ccc(SC)cc3)c2c1	4%
C=CS(=O)c1sc(Cl)c(N2CCOCC2)c1[N+](=O)[O-] (centres undefined)	?
Cc1ccc(-n2c(SCC(=O)c3c(N)n(C)c(=O)n(C)c3=O)nc3sc4c(c3c2=O)CCCC4)c(C)c1	-3%

Screening data (PubChem BioAssay)
